Bioassay records as filed in PubChem.
Autofluor counter – counter-screen for toxin protease inhibitors: compound fluorescence. fluorescence intensity (test concentration not listed). 3.1% of 360,000 active. compound autofluorescence counterscreen, microsphere flow cytometry; hits give high values;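 active = at least 3 SD above the mean of all compounds, about 16000 in these data; inconclusive = too few beads counted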;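 note: 100 nL of 1 mM stock went into each well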
Sa RN4220 lethal – kills Staphylococcus aureus RN4220; 0.33% of 330,000 active; S. aureus RN4220 growth, OD600, 16 h; inhibition, % (test concentration not listed); AID 1259311;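 active = z-score of -3 or lower and OD600 up to 0.18 on both plates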;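 note: plate controls were untreated cells for no effect and reference antibiotic for full effect; stock transfer was 100 nL into about 80 µL; one replicate is shown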
PrP 5UTR inh – inhibition of PrP 5' UTR reporter expression; cell-based PrP 5' UTR mRNA reporter, plate reader; inhibition, % (no concentration beside the values); 0.35% of 340,000 active; AID 488862;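 active = every replicate at 50% or more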;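 note: 0 = median of the neutral control wells; tested in H4 reporter cells; numbers are from one replicate; inactives centre near -14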
Mtb hypoxia inh – Mtb hypoxia fluorescent reporter inhibition | M. tuberculosis hypoxia-regulated fluorescent reporter, fluorescence | fluorescence inhibition, % (no concentration beside the values) | 0.1% of 300,000 active | AID 1159583;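 active = 35 to 45% if threefold the growth effect, above 45% if 1.5-fold the growth effect; inactive = the rest, general growth blockers included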;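 note: wells of about 50 µL received 100 nL stock; 0% = vehicle wells and 100% = reference inhibitor wells; whole bacteria with a GFP reporter of the hypoxia response; strong numbers were not always called active; many hits fall short of the cut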
Sa ugtP lethal – compounds lethal to S. aureus RN4220 ugtP deletion mutant | 0.54% of 330,000 active | OD600 growth, 16 h; some inactives read as strong as hits | AID 1259309 | growth inhibition, % (concentration not given with the values);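 active = z-score under -3 and OD600 up to 0.15 on both plates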;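 note: plate controls were untreated wells for no effect and antibiotic for full effect; wells of about 80 µL received 100 nL stock; the first replicate is given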
BJeLR lethal – kills HRASV12-expressing BJeLR cells; BJeLR (HRASV12) viability, CellTiter-Glo ATP luminescence, 48 h; reference of the scale not given here; inhibition, % (no concentration beside the values); 0.17% of 300,000 active;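 active = replicate mean above 50%; inconclusive = above 50% but judged a plate artefact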;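 note: 50 nL library stock added to about 25 µL; numbers are from one replicate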
Mtb hypoxia inh growth – further read-out of Mtb hypoxia inh, marked with its call; growth inhibition, %; measured here: M. tuberculosis growth (absorbance);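 0% = vehicle and 100% = reference antibiotic; read after six days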
An asterisk follows results filed as active; ? = inconclusive; . = not tested or not shown.

1. COc1cccc(NC(=O)CN(C)S(=O)(=O)c2ccc3c(c2)NC(=O)CS3)c1
2. CCOC(=O)CN1C(=O)S/C(=C/c2ccc(O)c([N+](=O)[O-])c2)C1=O
3. COCCNc1ccc(N2C(=O)CCCC2=O)cc1[N+](=O)[O-]
4. COc1ccc(-c2nnc(OCc3nc4ccccc4n3C)c3ccccc23)cc1
5. COc1ccc(/C=N/NC(=O)CN(Cc2ccccc2)S(=O)(=O)c2ccc3c(c2)OCCO3)cc1

screen / no. | 1 | 2 | 3 | 4 | 5
Autofluor counter | 5704 | 2824 | 3416 | 7824 | 2278
Sa RN4220 lethal | -4.0 | 1.0 | 2.0 | 2.4 | .
PrP 5UTR inh | -11.8 | -12.2 | -7.9 | -4.6 | -18.5
Mtb hypoxia inh | -9.2 | . | 7.6 | 6.6 | .
Mtb hypoxia inh growth | -1.3 | . | -10.7 | -6.2 | .
Sa ugtP lethal | -11.8 | 8.1 | 6.7 | -2.1 | .
BJeLR lethal | 8.4 | 4.2 | -7.3 | -7.1 | 17.1

6. OCCN(C=NC1=NN(c2cccc(C(F)(F)F)c2)CC1)CCO
7. COc1c(C=NNC(=O)[C@H]2C[C@@H]2c2ccccc2)c(CCN(C)C(C)=O)cc2c1OCO2
8. CCCc1c(C(=O)NNc2cc(C(F)(F)F)ccc2Cl)cnn1-c1ccccc1
9. COCCCn1c(-c2ccsc2)nc2c1c(=O)[nH]c(=O)n2Cc1ccccc1
10. CSc1ccc(/C=C(/NC(=O)c2ccco2)C(=O)N2CCOCC2)cc1

screen / no. | 6 | 7 | 8 | 9 | 10
Autofluor counter | 3376 | . | 5897 | 4536 | 4987
Sa RN4220 lethal | -0.2 | 3.5 | 3.9 | -1.3 | 4.2
PrP 5UTR inh | -24.1 | . | -9.8 | -3.4 | -6.7
Mtb hypoxia inh | 10.4 | -5.8 | -4.9 | -4.2 | 8.0
Mtb hypoxia inh growth | 4.4 | 5.0 | 8.8 | 3.2 | 8.4
Sa ugtP lethal | -3.5 | 0.1 | 5.4 | -5.4 | 12.4
BJeLR lethal | 5.3 | . | 8.6 | -0.7 | -2.2

11. CCc1ccc(Cn2nnc(C(=O)NCc3ccccc3OC)c2N)cc1
12. Cc1ccc(-n2ncc3c(=O)[nH]c(SCC(=O)N4CCCc5ccccc54)nc32)cc1
13. O=C1NC(c2ccccc2)=C(c2ccc3ccccc3n2)C(c2ccc(F)cc2)N1 (stereo unspecified)
14. CCCCSc1nnc(-c2ccc(NC(C)=O)cc2)n1C
15. CC1CCC(CN2C(Nc3ccccc3)=NCC2Cc2ccccc2)CC1 (stereo unspecified)

screen / no. | 11 | 12 | 13 | 14 | 15
Autofluor counter | 4517 | 4465 | 2513 | 2305 | .
Sa RN4220 lethal | 3.3 | 2.0 | 6.4 | 5.3 | 2.2
PrP 5UTR inh | -13.0 | -2.9 | -63.4 | -9.1 | .
Mtb hypoxia inh | . | . | 9.2 | 7.9 | 11.8
Mtb hypoxia inh growth | . | . | 3.2 | 1.0 | 6.8
Sa ugtP lethal | 10.2 | -0.1 | -11.6 | 5.3 | -1.2
BJeLR lethal | -4.0 | -2.0 | -1.1 | 2.7 | .

16. CC(=NNC(=O)c1nnn(-c2nonc2N)c1-c1cccs1)c1cccnc1
17. Clc1ccc(-c2csc(NN=Cc3ccc4c(c3)OCO4)n2)cc1
18. CCS(=O)(=O)N1CCC(C(=O)NCc2cc(OC)ccc2OC)CC1
19. CCCn1nc(C(=O)NNC(=O)CSC(C)C(=O)Nc2cc(C)on2)c2ccccc2c1=O (stereo unspecified)
20. CCOC(=O)N1CCN(c2c(N3CCN(c4cccc(C(F)(F)F)c4)CC3)c(=O)c2=O)CC1

screen / no. | 16 | 17 | 18 | 19 | 20
Autofluor counter | . | . | 13439 | 4786 | 11071
Sa RN4220 lethal | -0.1 | 0.1 | 6.1 | -0.6 | 5.7
PrP 5UTR inh | . | . | -39.1 | -2.1 | -0.3
Mtb hypoxia inh | -0.1 | . | -5.6 | -3.2 | 3.5
Mtb hypoxia inh growth | -3.2 | . | -1.4 | -7.5 | 8.7
Sa ugtP lethal | 1.1 | 40.0 | 0.7 | 6.7 | 0.9
BJeLR lethal | . | . | 3.7 | 1.8 | -14.8

21. Cc1cc(=O)oc2cc(OCC(=O)N3CCC(C(N)=O)CC3)ccc12
22. CCCCCN(C(=O)CCC(=O)OC(C)C(=O)NC1CCCCC1)c1c(N)n(CCCC)c(=O)[nH]c1=O (stereo unspecified)
23. Cc1ccc2c(COC(=O)c3c(C)noc3C)cc(=O)oc2c1
24. Cc1cc(NC(=O)CSc2nc3cc(Cl)ccc3c(=O)n2CC(C)C)no1
25. CC(=O)C1=C(O)C(=O)N(c2cccnc2)C1c1ccc(Cl)cc1 (stereo unspecified)

screen / no. | 21 | 22 | 23 | 24 | 25
Autofluor counter | 5622 | 4261 | 3544 | . | 4018
Sa RN4220 lethal | 2.3 | 1.5 | 4.6 | 8.5 | -2.2
PrP 5UTR inh | -18.4 | -22.9 | -13.1 | . | -9.9
Mtb hypoxia inh | . | 0.7 | 3.4 | 0.0 | 1.6
Mtb hypoxia inh growth | . | -2.0 | -10.5 | 1.2 | 9.4
Sa ugtP lethal | -10.7 | 8.3 | 7.2 | 8.0 | -11.5
BJeLR lethal | -2.1 | -7.6 | 4.4 | 0.7 | -15.9

26. Fc1cccc(Cl)c1CNCc1ccccc1Cl
27. O=C(CCCn1cnc([N+](=O)[O-])n1)Nc1ccc(Cl)c(Cl)c1
28. Cc1cccc(CCNC(=O)CN(C)S(=O)(=O)c2ccc3c(c2)c(=O)n(C)c(=O)n3C)c1
29. Nc1ncnc2nc(SCC(=O)Nc3cccc(C(F)(F)F)c3)[nH]c12
30. CCCNC(=O)NC(=O)COC(=O)CNS(=O)(=O)/C=C/c1ccccc1

screen / no. | 26 | 27 | 28 | 29 | 30
Autofluor counter | 3202 | 5923 | 5850 | 6141 | 4366
Sa RN4220 lethal | 12.3 | -6.0 | 3.9 | -0.2 | 5.4
PrP 5UTR inh | -6.9 | -8.2 | -22.6 | -8.6 | -53.2
Mtb hypoxia inh | 7.3 | 1.5 | 6.6 | 8.1 | 12.4
Mtb hypoxia inh growth | -0.4 | 11.2 | 5.7 | 14.6 | -5.4
Sa ugtP lethal | 0.5 | 31.2 | 10.6 | 0.3 | 5.1
BJeLR lethal | -4.6 | 18.2 | 2.8 | -0.3 | 5.7

Copied from the list.
#27 @ Autofluor counter = 5923
#30 @ Mtb hypoxia inh growth = -5.4

Other structures
31. CCOC(=O)c1c(C)[nH]c(C(=O)NCc2ccccn2)c1C
32. Cc1c(C)n(CCCN(C)C)c2ncnc(Nc3ccc(F)cc3)c12
33. O=C1NC(=O)C(=Cc2ccc(Sc3ccccc3)o2)C(=O)N1
34. COc1ccccc1/C=C/c1nc(S(=O)(=O)c2ccccc2)c(N(C)C)o1

screen / no. | 31 | 32 | 33 | 34
Autofluor counter | ? | 3674 | . | 5444
Sa RN4220 lethal | 1.5 | -2.7 | 1.3 | 4.4
PrP 5UTR inh | -31.7 | -20.2 | -13.9 | 9.3
Mtb hypoxia inh | -5.8 | 3.0 | 3.5 | -11.5
Mtb hypoxia inh growth | -3.9 | 2.7 | 5.0 | 4.3
Sa ugtP lethal | 2.2 | 0.5 | 2.6 | 5.0
BJeLR lethal | 0.4 | 4.3 | -4.6 | -11.1

2 neighbouring compounds out of the list so far:
33. O=C1NC(=O)C(=Cc2ccc(Sc3ccccc3)o2)C(=O)N1
34. COc1ccccc1/C=C/c1nc(S(=O)(=O)c2ccccc2)c(N(C)C)o1

screen / no. | 33 | 34
Autofluor counter | . | 5444
Sa RN4220 lethal | 1.3 | 4.4
PrP 5UTR inh | -13.9 | 9.3
Mtb hypoxia inh | 3.5 | -11.5
Mtb hypoxia inh growth | 5.0 | 4.3
Sa ugtP lethal | 2.6 | 5.0
BJeLR lethal | -4.6 | -11.1

Among those listed so far, these contain a halogen:
6. OCCN(C=NC1=NN(c2cccc(C(F)(F)F)c2)CC1)CCO
8. CCCc1c(C(=O)NNc2cc(C(F)(F)F)ccc2Cl)cnn1-c1ccccc1
13. O=C1NC(c2ccccc2)=C(c2ccc3ccccc3n2)C(c2ccc(F)cc2)N1 (stereo unspecified)
17. Clc1ccc(-c2csc(NN=Cc3ccc4c(c3)OCO4)n2)cc1
20. CCOC(=O)N1CCN(c2c(N3CCN(c4cccc(C(F)(F)F)c4)CC3)c(=O)c2=O)CC1
24. Cc1cc(NC(=O)CSc2nc3cc(Cl)ccc3c(=O)n2CC(C)C)no1
25. CC(=O)C1=C(O)C(=O)N(c2cccnc2)C1c1ccc(Cl)cc1 (stereo unspecified)

screen / no. | 6 | 8 | 13 | 17 | 20 | 24 | 25
Autofluor counter | 3376 | 5897 | 2513 | . | 11071 | . | 4018
Sa RN4220 lethal | -0.2 | 3.9 | 6.4 | 0.1 | 5.7 | 8.5 | -2.2
PrP 5UTR inh | -24.1 | -9.8 | -63.4 | . | -0.3 | . | -9.9
Mtb hypoxia inh | 10.4 | -4.9 | 9.2 | . | 3.5 | 0.0 | 1.6
Mtb hypoxia inh growth | 4.4 | 8.8 | 3.2 | . | 8.7 | 1.2 | 9.4
Sa ugtP lethal | -3.5 | 5.4 | -11.6 | 40.0 | 0.9 | 8.0 | -11.5
BJeLR lethal | 5.3 | 8.6 | -1.1 | . | -14.8 | 0.7 | -15.9

26. Fc1cccc(Cl)c1CNCc1ccccc1Cl
27. O=C(CCCn1cnc([N+](=O)[O-])n1)Nc1ccc(Cl)c(Cl)c1
29. Nc1ncnc2nc(SCC(=O)Nc3cccc(C(F)(F)F)c3)[nH]c12
32. Cc1c(C)n(CCCN(C)C)c2ncnc(Nc3ccc(F)cc3)c12

screen / no. | 26 | 27 | 29 | 32
Autofluor counter | 3202 | 5923 | 6141 | 3674
Sa RN4220 lethal | 12.3 | -6.0 | -0.2 | -2.7
PrP 5UTR inh | -6.9 | -8.2 | -8.6 | -20.2
Mtb hypoxia inh | 7.3 | 1.5 | 8.1 | 3.0
Mtb hypoxia inh growth | -0.4 | 11.2 | 14.6 | 2.7
Sa ugtP lethal | 0.5 | 31.2 | 0.3 | 0.5
BJeLR lethal | -4.6 | 18.2 | -0.3 | 4.3
